Compound activity: PubChem, several laboratories
rRNA inh HTS: reduced GFP signal of wild-type E. coli, primary screen, bacterial rRNA inhibitor project, GFP/RFP fluorescence, OD600, single point; E. coli WT GFP vs humanized-ribosome RFP mutants, 24 h; active compounds read low; DMSO median 0, no signal -100; GFP signal change (wild-type ribosome), % (test concentration not listed); AID 720706, 2013; 350,000 compounds, 1.6% hits;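 active = significant combined selectivity score with lowered wild-type GFP, culture density cut under 30%, mutant RFP and density less affected; inactive = any of these conditions unmet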; note: one replicate is shown; some compounds called inactive have numbers as strong as hits
UCH37 DUB inh: inhibitors of human UCH37 deubiquitinase, primary screen, biochemical, Ub-AMC cleavage, fluorescence; Ubiquitin carboxyl-terminal hydrolase isozyme L5 (Homo sapiens), Q9Y5K5; purified proteasome/UCH37; inhibition, % (concentration not given with the values); 330,000 compounds, 0.33% hits; AID 588478, 2011;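 active = mean of two replicates above 20%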;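 note: 0% = compound-free wells with enzyme and 100% = wells lacking proteasome; stock transfer was 100 nL into about 20 µL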
Target sequence (Q9Y5K5 whole entry, looked up): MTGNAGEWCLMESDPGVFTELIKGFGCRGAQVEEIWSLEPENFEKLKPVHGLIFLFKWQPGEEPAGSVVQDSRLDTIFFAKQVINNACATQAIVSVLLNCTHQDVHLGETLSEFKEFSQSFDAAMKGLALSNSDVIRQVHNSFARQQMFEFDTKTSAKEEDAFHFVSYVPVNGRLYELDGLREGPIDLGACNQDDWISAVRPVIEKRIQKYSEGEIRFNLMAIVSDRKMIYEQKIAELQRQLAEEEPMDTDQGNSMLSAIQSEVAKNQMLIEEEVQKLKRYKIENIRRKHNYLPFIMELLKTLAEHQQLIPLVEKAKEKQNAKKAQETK
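Material: human UCH37 enzyme supplied as purified proteasome complex / Amount: 0.15 nM proteasome as dispensed / Buffer or medium: pH 7.4 Tris-HCl (50 mM) with ovalbumin, ATP-MgCl2, DTT / Times: preincubation 30 min, reaction 25 min, room temperature / Technique: AMC fluorescence from Ub-AMC cleavage, excitation 355 nm, emission 460 nm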
E coli growth: E. coli growth inhibition, primary screen, OD600; OD600 absorbance (no concentration beside the values); Escherichia coli growth, 23 h; active compounds read low; 330,000 compounds, 0.21% hits;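 active = OD600 absorbance below the run mean of sample wells minus 3.6 SD, in any replicate, cut at about 0.56 in these data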;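 note: stock transfer was 300 nL into about 60 µL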
FGF22 binding: binders of human FGF22 protein, primary screen, FGF22 synaptogenesis inhibitor project, biophysical, thermal shift, single point | Fibroblast growth factor 22 (Homo sapiens), Q9HCT0 | recombinant FGF22 thermal shift, SYPRO orange fluorescence; percent of sucrose octasulfate shift, DMSO zero | calls only at 9.99 µM | 340,000 compounds, 1.5% hits | AID 651658, 2012;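 active = melting point raised past a set limit in the mean and every replicate; three in four hits are not shown here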
Target sequence (Q9HCT0 whole entry, looked up): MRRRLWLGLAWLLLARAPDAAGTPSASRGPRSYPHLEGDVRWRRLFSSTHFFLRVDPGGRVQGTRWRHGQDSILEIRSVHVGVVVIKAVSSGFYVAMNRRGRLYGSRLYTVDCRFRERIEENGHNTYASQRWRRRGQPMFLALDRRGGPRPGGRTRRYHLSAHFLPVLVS
T cruzi inh: inhibitors of intracellular T. cruzi growth, primary screen, luminescence, NIH3T3 host cells. 300,000 compounds, 1.4% hits. T. cruzi beta-gal in NIH3T3, 90 h. inhibition, % (test concentration not listed);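 active = mean inhibition across valid replicates above about 55%, limit read from the data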;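 note: signal also drops with host cell toxicity which is not excluded here; 0% = plate median of DMSO wells and 100% = zero luminescence signal; higher percent means less beta-gal luminescence so fewer parasites; stock transfer was 50 nL into about 50 µL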
Beta cell apopt: inhibitors of cytokine-induced beta cell apoptosis, primary screen, luminescence. INS-1E cytokine-induced death, ATP luminescence, 48 h; percent of positive-control rescue, neutral wells zero. protection from apoptosis, % (test concentration not listed). 300,000 compounds, 0.8% hits. AID 435005, 2010;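 active = all replicates at 75% or more, or half of them and the mean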;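 note: 0% = cytokine-treated negative control wells and 100% = positive control rescue; higher means more ATP so stronger rescue from cytokine killing; wells of about 40 µL received 100 nL stock; the first replicate is given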
AF4-AF9 inh: inhibitors of AF4 peptide binding to AF9, primary screen, biochemical, AlphaScreen, biotin-AF4 peptide, FLAG-AF9, single point; inhibition, % at 10 µM; Protein AF-9 (Homo sapiens), P42568; 350,000 compounds, 0.47% hits;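 active = every replicate reaching a set inhibition limit, whatever the replicate mean, cut at about 25% in these data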;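 note: 0% = plate neutral control median and 100% = total signal loss; the record names both 10 and 1 µM as test concentration; the first replicate is given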
Target sequence (P42568 whole entry, looked up): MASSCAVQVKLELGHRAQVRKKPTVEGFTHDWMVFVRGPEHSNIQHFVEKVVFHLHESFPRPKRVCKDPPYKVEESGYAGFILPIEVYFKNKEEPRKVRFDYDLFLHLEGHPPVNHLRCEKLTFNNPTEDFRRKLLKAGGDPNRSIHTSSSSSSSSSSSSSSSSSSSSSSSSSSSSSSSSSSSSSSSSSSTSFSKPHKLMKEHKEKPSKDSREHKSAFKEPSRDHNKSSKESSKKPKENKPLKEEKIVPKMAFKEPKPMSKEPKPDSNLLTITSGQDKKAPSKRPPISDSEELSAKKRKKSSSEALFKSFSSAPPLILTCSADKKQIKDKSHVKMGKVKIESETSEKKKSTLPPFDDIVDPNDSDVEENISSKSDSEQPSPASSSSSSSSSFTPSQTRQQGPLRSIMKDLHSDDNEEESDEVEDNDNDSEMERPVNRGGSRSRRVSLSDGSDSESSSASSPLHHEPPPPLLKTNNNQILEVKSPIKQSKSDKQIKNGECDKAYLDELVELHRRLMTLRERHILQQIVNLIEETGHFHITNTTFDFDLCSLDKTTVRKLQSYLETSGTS
Bfl-1 A1 inh: caspase 3/7 activation in MEF A1-2A-BIM cells, primary screen, A1 inhibitor project, cell-based, luminescence, HTS; 330,000 compounds, 0.066% hits; AID 2462, 2010; Caspase-Glo 3/7 luminescence, 3 h; percent of clofoctol response, vehicle zero; caspase activation, % (no concentration beside the values);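 active = over half of replicate activation scores above 10%, or exactly half above 10 with the replicate mean above 10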;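 note: wells of about 30 µL received 50 nL stock; many hits fall short of the cut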
rRNA inh HTS OD600: also measured in rRNA inh HTS; calls as there; OD600 change, %; measured here: OD600 growth;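 optical density of the mix in the first replicate; 0 = DMSO median and -100 = no signal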
rRNA inh HTS RFP: also measured in rRNA inh HTS; calls as there; RFP signal change, %; measured here: RFP humanized mutant strains;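 first replicate; 0 = DMSO median and -100 = no signal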
Active calls of the source: *; i = inactive; nt = not tested or not shown.

SMILES	rRNA inh HTS	rRNA inh HTS OD600	rRNA inh HTS RFP	UCH37 DUB inh	E coli growth	FGF22 binding	T cruzi inh	Beta cell apopt	AF4-AF9 inh	Bfl-1 A1 inh
CCOc1cc(C(=O)Nc2c(C)ccc3nsnc23)cc(OCC)c1OCC	nt	nt	nt	-13	0.71	nt	-7	3	nt	0.4
CC(=O)c1c(C)[nH]c(C(=O)OCC(=O)Nc2cccc(S(=O)(=O)N(C)C)c2)c1C	22	16	3.6	2.2	0.66	nt	-19	-3	1.4	-0.1
CC/C(Cc1ccccc1)=N\NC(=O)c1cc([N+](=O)[O-])cc([N+](=O)[O-])c1	6	1	-4.6	nt	nt	i	30	6	0.3	1.0
CC(C)(C)c1ccccc1NC(=O)c1cc(-c2ccncc2)nc2ccccc12	-6	-55	13	5.7	0.69	i	nt	-2	11	0.6
Cc1ccccc1NC(=O)COC(=O)CCc1ccccc1	nt	nt	nt	2.9	0.7	nt	-21	-1	nt	-0.2
O=C1C2CC=CCC2C(=O)N1c1ccc(N2CCN(c3ccccn3)CC2)c([N+](=O)[O-])c1 (centres undefined)	-8	-9	-3.2	3.2	0.7	i	-7	8	2.5	0.2
CCCCn1c(SCC(=O)Nc2nnc(C)s2)nnc1-c1ccoc1C	nt	nt	nt	2.7	0.74	nt	2	1	nt	0.6
O=C(COC(=O)/C=C/c1ccc(Cl)c(Cl)c1)NC1CCS(=O)(=O)C1 (centres undefined)	nt	nt	nt	2.5	0.72	i	nt	-1	0.0	-0.7
CCC1CCCCN1Cc1c(O)ccc2c(=O)c(-c3ccccc3)coc12 (centres undefined)	-1	1	-2.7	-447	0.63	i	2	nt	1.9	1.0
CCOc1cccc2cc(-c3nnc(NCc4ccc5c(c4)OCO5)s3)c(=O)oc12	16	2	-0.8	-1.5	0.64	i	7	3	-2.2	-1.0
Cc1cccc(N2CCN(c3nc4nonc4nc3N3CCSCC3)CC2)n1	17	10	2.2	5.0	0.66	i	2	2	15	0.2
O=C(Nc1ccccc1NC(=O)c1ccc(F)cc1)c1ccc(F)cc1	12	7	5.9	1.9	0.65	i	-8	-2	-1.1	0.4
C/C(=N/N1CCN(Cc2cccc3ccccc23)CC1)c1cccnc1	nt	nt	nt	nt	nt	i	-7	-4	8.3	-0.3
O=C(CCS(=O)(=O)c1ccc2c(c1)NC(=O)CS2)NCCc1ccccc1	6	11	2.5	2.7	0.67	i	-4	-4	-5.0	0.7
O=C(C[n+]1cc2ccccc2c2ccccc21)c1ccccc1	nt	nt	nt	-17	0.71	nt	1	5	nt	0.0
CC(C)CN1C(=O)C(=O)N(CC(=O)NC(C)CCc2ccccc2)C1=O (centres undefined)	10	1	3.8	0.8	0.6	i	nt	nt	-1.3	nt
CC1=C(c2ccccc2)C(O)(c2ccccc2)C(C)C1=O (centres undefined)	-7	-23	-2.6	2.8	0.62	i	nt	nt	-3.3	nt
O=C(CCCCCN1C(=O)CCC1=O)NCc1ccccc1	nt	nt	nt	0.6	0.68	nt	-29	-2	nt	0.6
Oc1ccc(Cl)cc1C1=NCCNC(C(F)(F)C(F)F)=C1	-22*	-18*	1.4*	6.9	0.65	nt	7	nt	nt	0.2
CCOC(=O)c1cnc2nc(NCc3ccc(OC)c(OC)c3)[nH]n2c1=O	nt	nt	nt	1.2	0.78	nt	-20	-5	nt	0.1
COc1ccccc1N1CCN(C(=O)c2c(C)cc(=O)oc2C)CC1	nt	nt	nt	2.3	0.76	nt	-6	-1	nt	0.3
N#CCCn1c(SCC(=O)c2c[nH]c3ccccc23)nc2ccccc21	nt	nt	nt	5.9	0.78	nt	-10	2	nt	0.2
Cc1onc(-c2ccccc2Cl)c1C(=O)NCCCc1ccccc1	-40	-53	-12	6.1	0.7	i	-4	0	-2.0	1.6
CCCOc1ccc(CNC(=O)Cn2c(=O)oc3ccccc32)cc1	2	8	1.5	6.5	0.72	i	4	-1	-3.1	-0.1
C=C(C)CN=CC1(C)CCC(C)=CO1 (centres undefined)	11	9	3.0	0.6	0.67	i	nt	nt	5.9	nt
CSc1cccc(NC(=S)N(Cc2ccc(C)cc2)Cc2ccccn2)c1	1	-2	-2.3	0.2	0.67	i	55*	5	-4.4	-0.6
CCOc1ccc(S(=O)(=O)NCc2ccncc2)cc1NC(=O)c1ccccc1	-4	-15	-0.2	3.7	0.65	i	2	24	-0.2	0.5
Cc1cccc(NC(=S)N2CCC(NC(=O)C3CCCCC3)CC2)c1	5	9	-2.5	6.0	0.68	i	-11	0	-0.9	0.1
O=C(COC(=O)c1cc(=O)[nH]c(=O)[nH]1)Nc1cccc(S(=O)(=O)N2CCOCC2)c1	11	3	0.1	0.6	0.72	i	12	0	-2.3	-0.5
CCCCNc1c([N+](=O)[O-])cc(C)cc1[N+](=O)[O-]	-13	-13	-3.6	0.2	0.7	i	9	-7	2.0	0.8
O=C(NCCn1cccn1)C1CCC(=O)N(CCc2ccccc2)C1 (centres undefined)	4	12	1.6	1.7	0.69	i	-19	2	0.5	0.8
Cc1ccccc1S(=O)(=O)c1c(C)cc(C)n(CC(C)C)c1=O	nt	nt	nt	1.9	0.7	nt	16	-6	nt	0.6
COC(=O)c1[nH]c2cccc(Cl)c2c1NC(=O)CN(C)C1CCCCC1	nt	nt	nt	3.6	0.68	nt	nt	-4	nt	1.0
Cc1ccc(-n2c(COc3c(C)cccc3C)nnc2SCC(=O)Nc2nccs2)cc1	nt	nt	nt	3.6	0.7	nt	5	-3	nt	-1.6
O=C(NCc1ccc(OC(F)(F)F)cc1)C1CC(c2ccccc2C(F)(F)F)=NO1 (centres undefined)	-1	-16	24	1.3	0.67	i	19	-5	2.9	-0.1
CC(C)CC(NC(N)=O)C(=O)Nc1ccc2c(c1)OCO2 (centres undefined)	-2	2	-0.2	2.7	0.63	i	-4	-4	1.7	-0.1
c1ccc(-c2nc(CSc3nnc(-c4cccs4)o3)cs2)cc1	nt	nt	nt	-1.8	0.65	nt	21	3	nt	-0.2
CCCCCCNC(=O)C(C(=O)OCC)C1CCCCC1 (centres undefined)	nt	nt	nt	1.3	0.73	nt	13	-3	nt	0.0
CCN1CCN(C(=S)Nc2cc(S(=O)(=O)N(CC)CC)ccc2C)CC1	1	-4	-2.4	-0.5	0.67	i	11	-2	-1.5	-0.4
CC(C)(C)C1CCc2c(sc3ncn(N)c(=N)c23)C1 (centres undefined)	-14	-13	5.0	3.3	0.65	i	25	64	-20	-0.3

Three entries from above, arranged by SMILES length, smallest number first.
SMILES	rRNA inh HTS	rRNA inh HTS OD600	rRNA inh HTS RFP	UCH37 DUB inh	E coli growth	FGF22 binding	T cruzi inh	Beta cell apopt	AF4-AF9 inh	Bfl-1 A1 inh
CCCCCCNC(=O)C(C(=O)OCC)C1CCCCC1 (centres undefined)	nt	nt	nt	1.3	0.73	nt	13	-3	nt	0.0
CC(C)CC(NC(N)=O)C(=O)Nc1ccc2c(c1)OCO2 (centres undefined)	-2	2	-0.2	2.7	0.63	i	-4	-4	1.7	-0.1
COC(=O)c1[nH]c2cccc(Cl)c2c1NC(=O)CN(C)C1CCCCC1	nt	nt	nt	3.6	0.68	nt	nt	-4	nt	1.0

(continued)
SMILES	rRNA inh HTS	rRNA inh HTS OD600	rRNA inh HTS RFP	UCH37 DUB inh	E coli growth	FGF22 binding	T cruzi inh	Beta cell apopt	AF4-AF9 inh	Bfl-1 A1 inh
COCc1cc(C)nc2sc(C(=O)NC3CCCCC3)c(N)c12	nt	nt	nt	-17	0.77	nt	16	-4	nt	0.2
CCCCC1CCC(/C(N)=N/O)CC1 (centres undefined)	nt	nt	nt	-0.9	0.67	nt	14	-14	nt	0.2
O=C(Nc1ccnn1C1CCN(C(=O)Cc2ccccc2F)CC1)C1CC1	10	10	-0.7	-1.1	0.7	i	-6	5	-3.0	-0.3
Cc1ccc(Nc2nc(N)c([N+](=O)[O-])c(N3CCOCC3)n2)cc1	nt	nt	nt	5.5	0.69	nt	-20	-7	nt	0.1
CN(Cc1ccccc1)C(=O)c1ccc(NC(=O)Cc2cccc(NC(=O)C3CCN(C(=O)C4CC4)CC3)c2)cc1	1	-5	2.6	3.4	0.68	i	nt	5	-2.5	0.4
Cc1cc(C)nc(Nc2nc3ccccc3s2)n1	14	10	1.1	1.8	0.69	i	5	-2	2.1	-2.3
CCc1nnc(NC(=O)CSc2nnc(-c3ccccc3O)o2)s1	-26*	-21*	2.2*	nt	nt	i	-13	7	-1.2	-0.5
COc1ccc(S(=O)(=O)N2CCCOC2CNC(=O)C(=O)NC2CCCC2)cc1 (centres undefined)	5	1	2.2	3.2	0.75	i	-8	-10	1.2	1.1
Cc1nc(-c2cccc(NC(=O)C3CCCCC3)c2)cs1	-40	-46	-17	5.9	0.67	i	-1	-4	4.2	0.4
Cc1ccc(C(=O)NC2CCN(CCCC(=O)c3ccc(F)cc3)CC2)cc1	-1	-6	4.4	3.3	0.65	i	29	-3	1.8	0.4
Cc1cc2cc(CCNC(=O)C(C)C)c(=O)[nH]c2cc1C	nt	nt	nt	-11	0.74	nt	1	nt	nt	-0.3
O=C(/C=C/c1cccs1)Nc1ccncc1	9	49	11	1.9	0.61	i	-13	10	-18	-2.2
CCCCNC(=O)Nc1cc(C(=O)OC)ccc1C	nt	nt	nt	-1.0	0.71	nt	10	-1	nt	0.1
CCc1cc(=O)[nH]c(-n2[nH]c(-c3ccccc3)cc2=O)n1	11	14	4.8	nt	nt	i	-12	-3	-1.6	-0.4
Cn1c(=O)c2nc(NCc3ccccc3)sc2n(C)c1=O	4	4	-3.9	4.3	0.67	i	nt	nt	-2.1	nt
O=[N+]([O-])c1ccc(S(=O)(=O)NCC2CC3CCC2C3)cc1 (centres undefined)	3	-5	-0.1	3.1	0.64	i	47	2	11	0.7
NS(=O)(=O)c1ccc(NC(=S)NC(=O)c2cccnc2)cc1	7	6	4.8	2.9	0.59	i	-6	3	-0.1	0.6
Cc1cc(/C=C2\C(=N)N3C(SCc4ccccc4)=NSC3=NC2=O)c(C)n1Cc1ccccc1	nt	nt	nt	-383	0.77	nt	-13	9	nt	0.6
N#CC(C#N)=Cc1cnc(N2CCN(c3ccccc3)CC2)s1	7	8	-0.6	3.8	0.68	i	-3	0	0.9	-0.8
Cn1c(=O)c2c(nc(N3CCCC3)n2CC(O)CO)n(C)c1=O (centres undefined)	nt	nt	nt	6.7	0.69	nt	-8	-2	nt	0.4
Cc1cc(C)n(CC(C)(O)c2ccccc2)n1 (centres undefined)	6	9	-2.2	0.8	0.67	i	-19	0	3.3	-0.5
CC(C)C1C2=C(CC(C)(C)CC2=O)ON1c1ccccc1 (centres undefined)	nt	nt	nt	-83	0.68	nt	13	-2	nt	0.4
CCCCCn1c(CN2CCCCC2C)nc2c1c(=O)n(C)c(=O)n2C (centres undefined)	nt	nt	nt	3.7	0.67	nt	18	-3	nt	0.5

This is a subset (hit frequency here may not be typical).
